A1 apoptosis 2 – blocks A1, raising caspase activity. AID 2465. 24,000 tested, under 10 active. MEF A1-2A-BIM cells, caspase-Glo luminescence, 3 h; percent of clofoctol response, DMSO zero. caspase activation, % (test concentration not listed); in the data active = caspase activation above about 5.9%;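 also: wells of about 30 µL received 50 nL stock; the first replicate is given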
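Material: mouse embryonic fibroblasts co-expressing A1 and BIM (A1-2A-BIM), primed for A1 dependence / Quantity: 2500 cells/well / Buffer or medium: RPMI-1640 growth medium with 10% FBS / Doses: 50 nL compound per well, pinned / Schedule: 3 h compound exposure at 37 °C / Signal: Caspase-Glo luminescence (DEVD substrate) / Measure: Caspase-3/7 activation, seen as rise in luminescence signal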
* hit, by the source's call. These rows are one share of the data. The share of hits here may be higher or lower than overall.

Structure | A1 apoptosis 2
Cc1noc(C)c1NC(=O)Nc1ccc2c(c1)CC(=O)N([C@@H](C)CO)C[C@@H](C)[C@@H](CN(C)C(=O)Nc1ccccc1)O2 | 1.0
CNC[C@H]1Oc2c(NC(=O)Nc3ccccc3)cccc2C(=O)N([C@@H](C)CO)C[C@H]1C | -0.3
C[C@H](CO)N1C[C@H](C)[C@H](CN(C)Cc2ccc3c(c2)OCO3)OCCCC[C@H](C)Oc2ccc(NC(=O)Nc3ccc4c(c3)OCO4)cc2C1=O | 0.1
C[C@@H]1CN([C@@H](C)CO)C(=O)c2cc(NS(=O)(=O)c3cn(C)cn3)ccc2O[C@H]1CN(C)Cc1ccncc1 | 0.1
C[C@H](CO)N1C[C@H](C)[C@H](CN(C)CC2CC2)Oc2ccc(NS(=O)(=O)c3cccs3)cc2CC1=O | -1.1
C[C@H](CO)N1C[C@H](C)[C@@H](CN(C)Cc2ccc(Oc3ccccc3)cc2)Oc2ccc(NC(=O)CCC(F)(F)F)cc2CC1=O | -1.3
O=C(CCCCC(=O)N/N=C/c1ccc[nH]1)NO | 0.0
C[C@@H]1CCCCO[C@@H](CN(C)S(C)(=O)=O)[C@@H](C)CN([C@H](C)CO)C(=O)c2cc(NC(=O)c3ccccc3)ccc2O1 | -0.4
Cc1ccc(S(=O)(=O)Nc2ccc3c(c2)C(=O)N([C@H](C)CO)C[C@@H](C)[C@H](CN(C)Cc2ccc(C(F)(F)F)cc2)O3)cc1 | -1.4
C[C@H](CO)N1C[C@H](C)[C@@H](CN(C)S(C)(=O)=O)OCCCC[C@H](C)Oc2ccc(NS(C)(=O)=O)cc2C1=O | -1.2
C[C@H]1CN([C@@H](C)CO)C(=O)c2cc(NC(=O)Nc3ccccc3)ccc2O[C@H]1CN(C)S(=O)(=O)c1ccc(Cl)cc1 | -0.8
O=C(NO)c1ccc(C(=O)N/N=C/c2cc(O)ccc2Br)cc1 | -0.4
Cc1noc(C)c1NC(=O)N(C)C[C@H]1Oc2ccc(NS(=O)(=O)c3cn(C)cn3)cc2CC(=O)N([C@H](C)CO)C[C@H]1C | 0.2
C[C@@H]1CN([C@H](C)CO)C(=O)Cc2cc(NC(=O)CCC(F)(F)F)ccc2O[C@H]1CN(C)C(=O)Nc1ccc(F)cc1 | -0.5
COc1ccc(S(=O)(=O)Nc2cccc3c2O[C@@H](CN(C)Cc2ccc(Cl)c(Cl)c2)[C@@H](C)CN([C@@H](C)CO)C3=O)cc1 | -0.1

Remaining list, next part:
Structure | A1 apoptosis 2
Cc1noc(C)c1NC(=O)Nc1ccc2c(c1)C(=O)N([C@@H](C)CO)C[C@H](C)[C@@H](CN(C)C(=O)C1CCCCC1)OCCCC[C@H](C)O2 | -1.1
C[C@H]1CN([C@@H](C)CO)C(=O)c2cccc(NS(=O)(=O)c3ccc(Cl)cc3)c2O[C@H]1CN(C)Cc1ccc(C(=O)Nc2ccccc2N)cc1 | -0.3
Cc1noc(C)c1NC(=O)Nc1ccc2c(c1)C(=O)N([C@@H](C)CO)C[C@@H](C)[C@H](CN(C)C(=O)Nc1c(C)noc1C)O2 | 0.3
COc1ccc(S(=O)(=O)N(C)C[C@H]2Oc3c(NC(=O)Nc4cccc5ccccc45)cccc3C(=O)N([C@H](C)CO)C[C@H]2C)cc1 | 0.3
Cc1noc(C)c1NC(=O)N(C)C[C@H]1OCc2cn(nn2)CCCC(=O)N([C@@H](C)CO)C[C@@H]1C | 0.7
C[C@H](CO)N1C[C@H](C)[C@@H](CN(C)Cc2ccc(C(F)(F)F)cc2)Oc2ccc(N(C)C)cc2CC1=O | 0.8
C[C@@H]1CCCCO[C@@H](CN(C)S(=O)(=O)c2cccs2)[C@@H](C)CN([C@H](C)CO)C(=O)c2cc(NC(=O)CCCCCC(=O)Nc3ccccc3N)ccc2O1 | 0.7
COc1ccc(NC(=O)Nc2cccc3c2O[C@H](CN(C)S(=O)(=O)c2cccs2)[C@@H](C)CN([C@@H](C)CO)C3=O)cc1 | 0.1
C[C@@H]1CN([C@H](C)CO)C(=O)c2cc(NC(=O)Cc3cn(C)c4ccccc34)ccc2O[C@H]1CN(C)Cc1ccc(C(=O)Nc2ccccc2N)cc1 | 0.0
C[C@@H]1CN([C@H](C)CO)C(=O)c2cc(NC(=O)NC3CCCCC3)ccc2O[C@@H]1CN(C)Cc1ccc2c(c1)OCO2 | 0.1
C[C@@H]1CN([C@H](C)CO)C(=O)c2cccc(NS(=O)(=O)c3cn(C)cn3)c2O[C@@H]1CN(C)C(=O)Nc1ccc(F)cc1 | -1.0
O=C1O[C@@H](c2ccccc2)[C@@H](c2ccccc2)N2[C@@H](c3ccc(OCCO)cc3)[C@]3(C(=O)Nc4ccccc43)[C@@H](C(=O)N3CCN(c4ncccn4)CC3)[C@H]12 | -1.0
C[C@@H]1CCCCO[C@H](CN(C)CC2CC2)[C@H](C)CN([C@@H](C)CO)C(=O)c2cc(NS(=O)(=O)c3ccccc3)ccc2O1 | 1.2
CC(C)NC(=O)Nc1ccc2c(c1)C(=O)N([C@H](C)CO)C[C@@H](C)[C@H](CN(C)C)O2 | -1.2
Cc1noc(C)c1NC(=O)N(C)C[C@@H]1Oc2c(NS(=O)(=O)c3ccc(F)cc3)cccc2C(=O)N([C@@H](C)CO)C[C@@H]1C | 0.6

Next entries.
Structure | A1 apoptosis 2
C[C@@H]1CN([C@H](C)CO)C(=O)c2cccc(NS(=O)(=O)c3ccccc3)c2O[C@H]1CN(C)C(=O)Nc1ccccc1 | 0.6
C[C@@H]1CCCCO[C@@H](CN(C)Cc2ccc(C(=O)O)cc2)[C@H](C)CN([C@@H](C)CO)C(=O)c2cc(NS(=O)(=O)c3cn(C)cn3)ccc2O1 | 1.6
COc1ccc(NC(=O)Nc2ccc3c(c2)C(=O)N([C@H](C)CO)C[C@@H](C)[C@H](CN(C)S(=O)(=O)c2cn(C)cn2)OCCCC[C@H](C)O3)cc1 | -0.7
C[C@@H]1CN([C@@H](C)CO)C(=O)Cc2cc(NS(=O)(=O)c3ccc(Cl)cc3)ccc2O[C@@H]1CN(C)C(=O)Nc1cccc2ccccc12 | -0.2
COc1ccc(S(=O)(=O)N(C)C[C@H]2Oc3ccc(NC(=O)CCCN(C)C)cc3CC(=O)N([C@H](C)CO)C[C@H]2C)cc1 | -0.2
C[C@@H]1CN([C@@H](C)CO)C(=O)c2cc(NS(=O)(=O)c3ccc(Cl)cc3)ccc2O[C@H]1CN(C)S(=O)(=O)c1ccc(Cl)cc1 | 0.1
C[C@@H]1CCCCO[C@H](CN(C)C(=O)Nc2cccc3ccccc23)[C@@H](C)CN([C@H](C)CO)C(=O)c2cc(NS(=O)(=O)c3cccs3)ccc2O1 | 0.2
Cc1noc(C)c1NC(=O)N(C)C[C@H]1Oc2ccc(NC(=O)NC3CCCCC3)cc2C(=O)N([C@H](C)CO)C[C@@H]1C | 0.1
C[C@@H]1CCCCO[C@H](CN(C)C(=O)CCCN(C)C)[C@H](C)CN([C@@H](C)CO)C(=O)c2cc(NC(=O)Nc3ccc(C(F)(F)F)cc3)ccc2O1 | -0.8
Cc1noc(C)c1NC(=O)Nc1ccc2c(c1)C(=O)N([C@H](C)CO)C[C@@H](C)[C@@H](CN(C)Cc1ccccc1)OCCCC[C@@H](C)O2 | 0.1
Cc1ccc(S(=O)(=O)Nc2ccc3c(c2)C(=O)N([C@H](C)CO)C[C@H](C)[C@@H](CN(C)C(=O)CCCN(C)C)OCCCC[C@@H](C)O3)cc1 | -0.2
C[C@@H]1CN([C@@H](C)CO)C(=O)c2cc(NS(=O)(=O)c3cn(C)cn3)ccc2O[C@H]1CN(C)C(=O)NC1CCCCC1 | -0.9
C[C@@H]1CCCCO[C@@H](CN(C)C)[C@H](C)CN([C@@H](C)CO)C(=O)c2cc(NC(=O)C3CCCCC3)ccc2O1 | -0.4
C[C@@H]1CN([C@@H](C)CO)C(=O)c2cccc(NC(=O)C3CCOCC3)c2O[C@@H]1CN(C)C(=O)Nc1ccc2c(c1)OCO2 | -0.1
O=C(Nc1ccccc1)C1=C[C@@H](c2ccc3c(c2)Cc2ccccc2-3)C[C@@H](OCc2ccc(CO)cc2)O1 | -0.6

Other compounds
Structure | A1 apoptosis 2
CCO[C@H]1OC(C(=O)N2CCOCC2)=C[C@@H](c2ccc(Br)cc2)[C@@H]1CCCO | 0.7
O=C(CCCCCC(=O)N/N=C/c1cccnc1Cl)NO | 1.5
C[C@H](CO)N1C[C@H](C)[C@@H](CN(C)S(C)(=O)=O)Oc2c(NC(=O)Nc3ccc(F)cc3)cccc2C1=O | -0.2
C[C@@H]1CN([C@H](C)CO)C(=O)c2cc(NC(=O)Nc3cccc4ccccc34)ccc2O[C@@H]1CN(C)Cc1ccc(-c2ccccc2)cc1 | -1.1
C[C@@H]1CN([C@@H](C)CO)C(=O)Cc2cc(NC(=O)Nc3ccc(C(F)(F)F)cc3)ccc2O[C@H]1CN(C)C(=O)Nc1ccc(C(F)(F)F)cc1 | -1.1
CC(C)NC(=O)Nc1ccc2c(c1)C(=O)N([C@H](C)CO)C[C@H](C)[C@@H](CN(C)C(=O)c1ccncc1)OCCCC[C@@H](C)O2 | -0.6
C[C@@H]1CN([C@H](C)CO)C(=O)Cc2cc(NC(=O)C3CC3)ccc2O[C@@H]1CN(C)Cc1ccc(C(F)(F)F)cc1 | 0.6
O=C(CCCCCCC(=O)Nc1ccccc1O)N/N=C\c1ccc2ccccc2n1 | 0.2
C[C@@H]1CN([C@H](C)CO)C(=O)c2cc(NS(=O)(=O)c3ccccc3)ccc2O[C@@H](C)CCCCO[C@@H]1CN(C)S(C)(=O)=O | -1.2
C[C@@H]1CN([C@@H](C)CO)C(=O)c2cc(NC(=O)Cc3ccccc3)ccc2O[C@@H]1CN(C)S(=O)(=O)c1ccccc1 | 0.0
COc1ccc(NC(=O)N(C)C[C@@H]2Oc3ncc(C#Cc4ccccc4)cc3C(=O)N([C@H](C)CO)C[C@@H]2C)cc1 | -1.1
C[C@H](CO)N1C[C@H](C)[C@H](CN(C)CC2CC2)Oc2ccc(NC(=O)Cn3cnnn3)cc2C1=O | 0.0
C[C@@H]1CN([C@H](C)CO)C(=O)Cc2cc(NS(=O)(=O)c3cn(C)cn3)ccc2O[C@@H]1CN(C)S(=O)(=O)c1ccccc1 | -0.2
C[C@H](CO)N1C[C@H](C)[C@H](CN(C)S(=O)(=O)c2cccs2)Oc2ccc(NS(=O)(=O)c3ccc(Cl)cc3)cc2C1=O | -0.2
C[C@H](CO)N1C[C@H](C)[C@H](CN(C)C(=O)Nc2cccc3ccccc23)Oc2ccc(NC(=O)Nc3cccc4ccccc34)cc2CC1=O | -0.7

5 records drawn at random from those above:
Structure | A1 apoptosis 2
C[C@H](CO)N1C[C@H](C)[C@H](CN(C)S(=O)(=O)c2cccs2)Oc2ccc(NS(=O)(=O)c3ccc(Cl)cc3)cc2C1=O | -0.2
O=C(CCCCCCC(=O)Nc1ccccc1O)N/N=C\c1ccc2ccccc2n1 | 0.2
C[C@@H]1CN([C@@H](C)CO)C(=O)c2cc(NC(=O)Cc3ccccc3)ccc2O[C@@H]1CN(C)S(=O)(=O)c1ccccc1 | 0.0
C[C@@H]1CN([C@@H](C)CO)C(=O)Cc2cc(NC(=O)Nc3ccc(C(F)(F)F)cc3)ccc2O[C@H]1CN(C)C(=O)Nc1ccc(C(F)(F)F)cc1 | -1.1
C[C@H](CO)N1C[C@H](C)[C@@H](CN(C)S(C)(=O)=O)Oc2c(NC(=O)Nc3ccc(F)cc3)cccc2C1=O | -0.2

Shown with each value named: entries from further up
> C[C@@H]1CN([C@@H](C)CO)C(=O)c2cc(NC(=O)Cc3ccccc3)ccc2O[C@@H]1CN(C)S(=O)(=O)c1ccccc1
  A1 apoptosis 2: 0.0
> COc1ccc(NC(=O)N(C)C[C@@H]2Oc3ncc(C#Cc4ccccc4)cc3C(=O)N([C@H](C)CO)C[C@@H]2C)cc1
  A1 apoptosis 2: -1.1

Following part
Structure | A1 apoptosis 2
C[C@H]1CCCCO[C@H](CN(C)C(=O)CCC(F)(F)F)[C@@H](C)CN([C@@H](C)CO)C(=O)c2cc(NS(=O)(=O)c3cn(C)cn3)ccc2O1 | 1.7
C[C@@H]1CN([C@H](C)CO)C(=O)c2cccc(NC(=O)Nc3ccc(F)cc3)c2O[C@H]1CN(C)S(=O)(=O)c1cn(C)cn1 | 1.6
Cc1noc(C)c1S(=O)(=O)N(C)C[C@@H]1OCCCC[C@@H](C)Oc2ccc(NS(=O)(=O)c3ccc(Cl)cc3)cc2C(=O)N([C@@H](C)CO)C[C@H]1C | 0.3
CC(C)NC(=O)Nc1ccc2c(c1)C(=O)N([C@H](C)CO)C[C@H](C)[C@@H](CN(C)S(=O)(=O)c1ccccc1)O2 | 0.6
COc1ccc(S(=O)(=O)N(C)C[C@@H]2Oc3ccc(NC(=O)Nc4ccc5c(c4)OCO5)cc3CC(=O)N([C@@H](C)CO)C[C@H]2C)cc1 | 0.1
Cc1noc(C)c1S(=O)(=O)N(C)C[C@@H]1OCCCC[C@@H](C)Oc2ccc(NS(=O)(=O)c3cn(C)cn3)cc2C(=O)N([C@@H](C)CO)C[C@H]1C | -1.3
C[C@H](CO)N1C[C@H](C)[C@@H](CN(C)Cc2ccc(C(=O)O)cc2)Oc2ccc(NS(=O)(=O)c3cccs3)cc2CC1=O | -0.5
C[C@H]1CN([C@@H](C)CO)C(=O)Cc2cc(NC(=O)Cc3ccccc3)ccc2O[C@H]1CN(C)Cc1ccc(C(=O)Nc2ccccc2N)cc1 | 0.8
CC(C)NC(=O)N(C)C[C@@H]1Oc2ccc(NC(=O)NC3CCCCC3)cc2C(=O)N([C@@H](C)CO)C[C@H]1C | 0.4
C[C@H](CO)N1C[C@H](C)[C@@H](CN(C)CC2CC2)Oc2ccc(NC(=O)Nc3ccccc3)cc2CC1=O | 0.1
C[C@@H]1CCCCO[C@@H](CN(C)C(=O)NC2CCCCC2)[C@H](C)CN([C@@H](C)CO)C(=O)c2cc(NS(=O)(=O)c3ccc(F)cc3)ccc2O1 | -1.8

High-throughput results from PubChem BioAssay.
